# Mtb growth – Mycobacterium tuberculosis H37Rv growth inhibition, cell based, confirmatory dose response (AID 1949); inhibition, % at 10 µg/mL; hits with a dose series show IC50 in µg/mL; 100,000 compounds, 1.6% hits; most inactive calls were filed without a number and no value below 0 was filed;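 active = confirmed in a dose series; inconclusive = about 50% or more but not retested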;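 also: bacteria grown 7 days with compound before Alamar blue readout; 0% = untreated bacteria and 100% = reference antibiotic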
# Starred values were filed as active, the others as inactive; i = inactive; u = inconclusive. Not all compounds are listed (hit frequency here may not be typical).
SMILES,Mtb growth
Nc1cc(CN2C(=O)c3ccccc3C2=O)cc(Cl)c1O,i
COc1ccc(C)cc1S(=O)(=O)N1CCC(C(=O)Nc2c(C)cccc2C(C)C)CC1,i
CC(C)NCCOc1ccc(Cl)cc1Br,i
Nn1c(SCc2ccc(Br)cc2)nncc1=O,1%
CCOC(=O)c1c(C)cc(C)[nH]c1=S,i
O=C(CCc1ccccc1)NNC(=O)C1C2C=CC(C2)C1C(=O)O (stereo not drawn),0%
Cc1c(O)ccc2c(=O)c(-c3nc4ccccc4s3)coc12,1%
CCN(CC)c1ccc([N+](=O)[O-])cc1C(=O)Nc1ccccc1,i
COc1ccc(Cl)cc1N(CC(=O)Nc1cccc(F)c1)S(=O)(=O)c1ccccc1,3%
COC(=O)c1ccc(COc2ccc3c(C)cc(=O)oc3c2C)cc1,0%
COc1ccc(NC(=O)COc2ccc3c(=O)c(Oc4ccc(C)cc4)c(C(F)(F)F)oc3c2)cc1,i
Cc1cc2nc3sc4nc5ccccc5nc4n3c2cc1C,i
O=[N+]([O-])c1cccc(-c2noc(-c3cc(Br)ccc3Cl)n2)c1,i
Cc1cc(C(=O)Nc2ccc3c(c2)OCO3)ccc1[N+](=O)[O-],i
CCOc1ccc(NC(=O)NCCOC)cc1,i
O=C(O)Cc1sc(Nc2cccc(Cl)c2)nc1-c1ccccc1,i
CCOc1ccc(-c2cc(OCC)c3c(C)oc(C)c3c(=[O+]CC)c2)cc1,i
COc1ccc(Cc2noc(-c3ccc(Br)cc3)n2)cc1OC,i
Cc1cc(C)cc(C(=O)Nc2cccc(-c3nc4cc(C)cc(C)c4o3)c2C)c1,i
COCCNC(=O)CN(C)S(=O)(=O)c1ccc(OC)c(C)c1,i
CCOC(=O)C1CCN(C(=O)CN(c2ccc(F)cc2)S(=O)(=O)c2ccc3c(c2)OCCO3)CC1,i
Cc1cccc(NC(=O)c2ccccc2OCC(=O)N2CCCC2)c1C,i
O=C1CSC2=NC3=C(CCc4ccccc43)C(c3ccccc3F)N12 (stereo not drawn),1%
CS(=O)(=O)N1CCN(C(=O)c2cccc(Cl)c2)CC1,i
S=C(NC1CCCCC1)N(Cc1ccccc1)Cc1ccco1,i
CCOc1ccc(NC(=O)C(C)Sc2nnc(-c3cccc(OCC)c3)n2C)cc1 (stereo not drawn),i
C=CCOc1c(CNCCCN2CCOCC2)cccc1OCC,4%
Cc1ccc(C)c(NC(=O)c2ccccc2NC(=O)c2ccccc2)c1,i
CCOC(=O)c1ccccc1NC(=O)C(C)Oc1ccc2c(C)cc(=O)oc2c1 (stereo not drawn),i
Cc1ccc(C)c(NC(=O)C23CCC(C)(C(=O)C2)C3(C)C)c1 (stereo not drawn),i

# In a second layout: three of the compounds above.
compound	Mtb growth
CC(C)NCCOc1ccc(Cl)cc1Br	i
Nn1c(SCc2ccc(Br)cc2)nncc1=O	1%
CCOC(=O)c1c(C)cc(C)[nH]c1=S	i

# New compounds follow
SMILES,Mtb growth
Cc1ccc(-n2nc3ccc(NC(=S)NC(=O)c4cccs4)cc3n2)cc1,i
CCOc1cc(C(=O)Oc2ccc(F)cc2)cc(OCC)c1OCC,30%
CCSc1ccccc1C(=O)N1CCc2ccccc21,2%
O=C(NCCOc1ccccc1Cl)Nc1ccccc1,6%
CCC(=O)Nc1cc(C(C)C)c(O)cc1C,i
CCCCOc1ccc(C(=O)Nc2ccc(OCC)cc2[N+](=O)[O-])cc1,i
COC(=O)C1=CN(C(C)C)C=C(C(=O)OC)C1c1ccc(O)cc1,i
CC(=O)c1cccc(NC(=O)C(Cl)Cl)c1,49%
O=Cc1ccc(-c2nc3c4ccccc4ccn3c2C=O)o1,4%
N/C(=N\OC(=O)Oc1ccccc1)c1ccc(Cl)cc1,i
O=Cc1ccc(OCc2ccccc2)cc1,i
Cc1onc(-c2c(Cl)cccc2Cl)c1C(=O)Nc1ccc(Nc2ccccc2)cc1,12%
CC1CN(S(=O)(=O)c2cc([N+](=O)[O-])ccc2N2CCC(c3ccccc3)CC2)CC(C)O1 (stereo not drawn),i
Cc1ccnc(NS(=O)(=O)c2cccs2)c1,0%
CCOc1ccc(OCCN2CCN(C)CC2)cc1,i
CCOC(=O)COc1c(I)cc(C2NC(=O)NC(C)=C2C(=O)OC)cc1OCC (stereo not drawn),i
Cc1ccc(CNc2ccc(O)cc2)cc1,i
CCc1[nH]nc2c1C1(CCOC1C)c1c(N)noc1-2 (stereo not drawn),1%
CN1CCN(c2ccc([N+](=O)[O-])cc2NC(=O)c2cccs2)CC1,i
CN(C)c1ccc(C(O)(c2ccc(N(C)C)cc2)c2ccc(N(C)C)cc2)cc1,0.6µg/mL*
COc1ccc(C2(CNC(=O)c3ccc(OC)c(OC)c3)CCOCC2)cc1,i
COc1cc(OC)cc(C(=O)N/C(=N/c2nc(C)cc(C)n2)Nc2cc(Cl)ccc2Cl)c1,i
CCN(C(=O)CSc1nc2ccccc2s1)c1ccccc1,2%
O=C1CCc2c(Cl)cc(Cl)c(O)c21,i
COc1ccccc1C(=O)NNS(=O)(=O)c1ccc(C)cc1,i
C=CCNC(=O)COc1c(C)cc(Br)cc1C,i
CCOC(=O)COc1ccc(C=O)cc1,6%
O=C1CC(c2ccc(S(=O)(=O)N3CCCCC3)cc2)CN1 (stereo not drawn),i
O=C(NCCc1ccccc1)C1CC(=O)N2CCN=C2S1 (stereo not drawn),i
O=C(NC1CCCCC1)c1c(NC(=O)C2CCCO2)sc2c1CCCC2 (stereo not drawn),i
COc1ccc(N2CCN(C(=O)COc3ccc(C)cc3Br)CC2)cc1,10%
CC(C)C(NS(=O)(=O)c1ccccc1F)C(=O)O (stereo not drawn),i
CCN1CCN(C(=O)COc2cc(C)c(Cl)c(C)c2)CC1,i
CCCCC(=O)Nc1ccc(C(=O)NC2CCCCCC2)cc1,i
CCCNC(=O)c1ccccc1NC(=O)c1ccc(N(Cc2ccc(C)cc2)S(C)(=O)=O)cc1,i
Cc1cc(NC(=S)NC(=O)c2ccc(-c3ccccc3)cc2)ccc1NC(=O)c1ccco1,i
COc1ccc(C(=O)CSc2nc3cc(C(F)(F)F)ccc3s2)cc1,i
Cc1ccc(C(=O)Nc2ccc(Cl)cc2C(F)(F)F)o1,5%
CCOc1cc(C=O)cc(Br)c1OCC(=O)NCCc1ccccc1,i
Cc1cc(C)c(C)c(OCCCCN(C)Cc2ccccc2)c1,u
c1ccc(-c2ccccc2OCCOCCN2CCOCC2)cc1,i
OCCNCc1cccc(Br)c1,i
COc1ccc(C(=O)Nc2ccc(CN3CCOCC3)cc2)cc1,i
CCN(CC)c1ccc(C2C(C(=O)OC)=C(C)N=C3SCC(=O)N32)cc1 (stereo not drawn),i
O=C(COc1ccc(Cl)cc1Cl)NC(=O)N1CCOCC1,i

# 4 entries already listed, arranged by heavy-atom count, largest number first.
SMILES,Mtb growth
CCCNC(=O)c1ccccc1NC(=O)c1ccc(N(Cc2ccc(C)cc2)S(C)(=O)=O)cc1,i
CCN(CC)c1ccc(C2C(C(=O)OC)=C(C)N=C3SCC(=O)N32)cc1 (stereo not drawn),i
CCCCC(=O)Nc1ccc(C(=O)NC2CCCCCC2)cc1,i
OCCNCc1cccc(Br)c1,i

# Carrying on.
SMILES,Mtb growth
CCOCCCNC(=O)c1ccccc1Br,i
O=C(O)c1ccc(CNCc2ccccc2F)cc1,3%
C1=CC2CC1CC2CN1CCN(Cc2ccc3c(c2)OCO3)CC1 (stereo not drawn),i
NS(=O)(=O)c1ccc(NC(=S)N2CCN(C(=O)c3ccco3)CC2)cc1,i
CCN(CC)S(=O)(=O)c1ccc(OC)c(NC(=O)CSc2ccccc2)c1,i
CCNC(=O)C12CCC(C)(c3nc4cc(C)c(C)cc4nc31)C2(C)C (stereo not drawn),i
Cc1ccc(NC(=O)NCc2ccccc2Cl)cc1,7%
COc1ccc(CNC(=O)CCc2ccccc2)cc1OC,i
Cc1nc2c(sc3nc4c(cc32)COC(C)(C)C4)c(=O)n1CC1CCCO1 (stereo not drawn),i
O=C(Nc1ccccc1OC(F)F)c1ccc(-c2cccc(Cl)c2Cl)o1,i
O=C(CSc1n[nH]c(=O)[nH]c1=O)N/N=C/c1cccs1,i
O=C(c1ccc(Cl)c(Cl)c1)N1CCN(c2ccc([N+](=O)[O-])c(NCC3CCCO3)c2)CC1 (stereo not drawn),i
COc1cccc(OC)c1OCCNCc1ccccc1,i
O=C(CSc1nc2ccccc2[nH]1)Nc1ccc(Br)cc1F,34%
Nc1ncnc2nc(SCCOc3ccccc3)[nH]c12,3%
O=C(COc1ccccc1C(=O)NC12CC3CC(CC(C3)C1)C2)NC12CC3CC(CC(C3)C1)C2,4%
O=C(CNS(=O)(=O)c1ccc(Cl)cc1)NC1CCCCCC1,2%
COC(=O)CSc1nc(C)c(C)c(C)c1C(N)=O,i
Cc1ccc(CSCCNC(=O)c2ccc(Cl)c(S(=O)(=O)N3CCOCC3)c2)cc1,i
CC(=O)Nc1ccc(S(=O)(=O)NCCOC23CC4CC(CC(C4)C2)C3)cc1,i
NC(=O)CSc1nnc2ccc3ccccc3n12,i
COCCCNCCOCCOc1ccc(C(C)(C)C)cc1C,i
COc1ccc(NC(=O)c2ccccc2Cl)c(OC)c1,40%
COC(=O)c1cccc(NC(=S)N2CCCCCC2)c1,i
Cc1ccc(OCC(=O)Nc2ccc(S(=O)(=O)NC(C)(C)C)cc2)c(C)c1,i
CCN(C1CCCCC1)S(=O)(=O)c1cc(C)ccc1OC,i
COc1ccc(OCC#CCSc2ncccn2)cc1,3%
COC(=O)CNC(=O)C12CC3(C)CC(C)(CC(C)(C3)C1)C2,i
COc1ccc(-n2nnnc2C2CCN(S(=O)(=O)c3ccccc3)CC2)cc1,0%
Cc1coc(C)c1C(=O)CC1(O)C(=O)Nc2ccc(Br)cc21 (stereo not drawn),i

# The final 8 compounds of the part above open the next one:
SMILES,Mtb growth
COc1ccc(NC(=O)c2ccccc2Cl)c(OC)c1,40%
COC(=O)c1cccc(NC(=S)N2CCCCCC2)c1,i
Cc1ccc(OCC(=O)Nc2ccc(S(=O)(=O)NC(C)(C)C)cc2)c(C)c1,i
CCN(C1CCCCC1)S(=O)(=O)c1cc(C)ccc1OC,i
COc1ccc(OCC#CCSc2ncccn2)cc1,3%
COC(=O)CNC(=O)C12CC3(C)CC(C)(CC(C)(C3)C1)C2,i
COc1ccc(-n2nnnc2C2CCN(S(=O)(=O)c3ccccc3)CC2)cc1,0%
Cc1coc(C)c1C(=O)CC1(O)C(=O)Nc2ccc(Br)cc21 (stereo not drawn),i
CCCS(=O)(=O)c1ccc(COC(=O)c2cccc(NC(=O)C(C)C)c2)cc1,i
O=C1c2ccc3c4c(ccc(c24)C(=O)N1Cc1ccco1)CC3,i
c1cc(NCc2ccncc2)cc(-c2nc3ccccc3s2)c1,i
Cc1nn(S(=O)(=O)c2ccc(F)cc2)c(C)c1Sc1ccccc1,15%
CCCn1c(=N)n(CC(O)COc2ccccc2OC)c2ccccc21 (stereo not drawn),i
O=C1c2ccccc2C(=O)N1Cc1nc2c3c4c(sc3ncn2n1)CCCCC4,i
CSc1nc2c(c(-c3ccc(O)cc3)c1C#N)CCCC2,3%
Cc1sc(NC(=O)c2cnccn2)nc1-c1ccc(F)cc1,i
C#Cc1cccc(NC(=O)COc2ccccc2OC)c1,0%
Cc1nonc1NC(=O)CN1CCCCC1,i
Cc1sc2ncn(C(C)C(=O)OC3CCCCC3)c(=O)c2c1C (stereo not drawn),1.1µg/mL*
Cc1c(Cl)cccc1NC(=S)NCc1ccccc1Cl,0%
O=[N+]([O-])c1ccc2c(c1)nc1n2CCN(C2CCCCC2)C1,i
O=C(CSc1nc2ccccc2c(=O)[nH]1)Nc1ccc2nsnc2c1,i
O=C(NC1CCCCCC1)c1ccc(Br)o1,i
CCCN1C(=O)c2ccc(C(=O)c3ccc(C(=O)O)cc3)cc2C1=O,i
CCn1c(CC(=O)Nc2cccc(OC)c2)nnc1SCC(=O)Nc1cc(C(F)(F)F)ccc1Cl,i
Cc1cc(C)nc(SC(C)C(=O)Nc2cccc3ccccc23)n1 (stereo not drawn),i
Cc1cc(OCC(=O)Nc2sc(C)c(C)c2C(N)=O)cc(C)c1Cl,i
Cc1ccc(CSc2ncn(-c3ccccc3)n2)cc1,4%
O=C(Nc1cccc(C(=O)Nc2cccnc2)c1)c1ccccc1,i
Cc1ccccc1OCc1nnc(SCC(=O)c2ccc3ccccc3c2)n1C,i
CCOC(=O)C(=O)Nc1ccc(S(=O)(=O)NCCc2ccccc2)cc1,2%
COc1ccc(OCCOCCOc2cccc3ccc(C)nc23)cc1,10%
O=C(NCCc1cccc2ccccc12)C1CCCN1S(=O)(=O)c1ccc2ccccc2c1 (stereo not drawn),3%
CNCC(=O)NC1C2CC3CC(C2)CC1C3 (stereo not drawn),i
Cc1cc(NC(=O)C(=O)NCc2cccs2)no1,1%
COCCCNC(=S)NNC(=O)C(O)(c1ccccc1)c1ccccc1,2%
O=C(CSc1ccccc1)Nc1ccc(NC(=O)c2ccco2)cc1,i
Cc1cc(OCC(=O)N2CCN(Cc3ccccc3)CC2)cc(C)c1Br,12%
COc1ccc(C(=O)Nc2nnc(SCC(=O)Nc3ccc(C)c(Cl)c3)s2)cc1OC,i
O=S(=O)(c1ccc2oc3ccc(S(=O)(=O)N4CCOCC4)cc3c2c1)N1CCOCC1,i
CSc1ccc(-c2nnn(CC(N)=O)n2)cc1,u
O=C(COc1ccc(F)cc1)N1CCC(Cc2ccccc2)CC1,i
Fc1ccc(-c2nc(Cc3ccc(Cl)cc3Cl)no2)cc1,i
COc1ccc(C(C)C)cc1S(=O)(=O)NCCc1c(C)[nH]c2ccc(Br)cc12,i
CC(=O)Nc1ccc(NC(=O)c2ccc(C)c(Br)c2)cc1,i
CNC(=O)NCCCN1CCN(c2ccccc2[N+](=O)[O-])CC1,3%
CSc1nc(S(=O)(=O)c2ccc(C)cc2)c(Cl)s1,i
